TRPML1 inh – blocks the human TRPML1 channel; TRPML1-inducible cells, Ca2+ dye fluorescence, FDSS; active compounds read low; inhibition of EC80 agonist-evoked calcium signal; Q9GZU1; activity change, negative = inhibition, % (no concentration beside the values); 390,000 compounds, 0.02% hits; in the data active means activity change below about -50%; inconclusive means about -30% to -50%; inactive means above about -30%;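 note: stimulus is agonist 54-4 at its EC80 concentration; % is set by controls: 0 for no effect and ±100 for the full control effect; compound concentration not given in the record; the text of the record puts the active cut at -80%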
Target sequence (Q9GZU1 whole entry, looked up): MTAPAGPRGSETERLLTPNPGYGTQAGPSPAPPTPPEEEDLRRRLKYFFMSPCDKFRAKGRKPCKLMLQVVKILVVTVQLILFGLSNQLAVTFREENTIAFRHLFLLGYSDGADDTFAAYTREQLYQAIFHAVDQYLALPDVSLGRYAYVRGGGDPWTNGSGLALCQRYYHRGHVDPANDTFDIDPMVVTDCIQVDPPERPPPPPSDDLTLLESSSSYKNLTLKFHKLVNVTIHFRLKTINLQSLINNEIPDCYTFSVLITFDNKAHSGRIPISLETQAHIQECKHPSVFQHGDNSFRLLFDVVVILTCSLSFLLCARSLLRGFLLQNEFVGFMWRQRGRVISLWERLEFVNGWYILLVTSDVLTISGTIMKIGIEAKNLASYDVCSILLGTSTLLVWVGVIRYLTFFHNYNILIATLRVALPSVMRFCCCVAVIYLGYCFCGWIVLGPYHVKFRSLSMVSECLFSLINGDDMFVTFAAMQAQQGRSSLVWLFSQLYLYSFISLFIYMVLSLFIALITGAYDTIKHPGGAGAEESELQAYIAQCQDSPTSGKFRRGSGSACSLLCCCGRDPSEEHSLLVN
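Calcium fluorescence in TRPML1-DL cells induced overnight with Tet: a 110 s read after compound pin addition, then a 110 s antagonist read after challenge with 54-4 at 4 uM final (EC80).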
Six1-Eya2 inh – inhibitors of human Six1/Eya2 interaction. activity change, % (no concentration beside the values). AlphaScreen GST-Six1/His-Eya2 binding, biochemical; active compounds read low; control for the full effect not named in the record. 360,000 compounds, 0.56% hits; in the data active = activity change below about -65%; inconclusive = about -30% to -65%; inactive = above about -30%; note: % is set by controls: 0 for no effect and ±100 for the full control effect
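AlphaScreen luminescence read after one hour at 37 °C in darkness. Pin-transferred compounds met GST-Six1 and His-Eya2 protein (5X stock 250 nM/500 nM) plus glutathione donor and Ni-chelate acceptor beads (5X, 50 ug/mL).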
CtBP-E1A inh – blocks the CtBP interaction with E1A; activity change, % (concentration not given with the values); 340,000 compounds, 0.49% hits; AlphaScreen GST-E1A/His-CtBP binding, 1536-well; active compounds read low; control for the full effect not named in the record; in the data active means activity change below about -65%; inconclusive means about -30% to -65%; inactive means above about -30%; note: % is set by controls: 0 for no effect and ±100 for the full control effect
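GST-E1A and His-tagged CtBP (125 nM each as 5X stock) were preincubated with pin-transferred compound for 2 h at 37 °C in the dark, then glutathione donor and nickel acceptor beads were added for 1 h before AlphaScreen reading.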
TRPML1 ag – activates the human TRPML1 channel; Q9GZU1; TRPML1-expressing cells, Ca2+ dye fluorescence, FDSS; host cell line not named in the record; reference of the full effect not given here; activation, % (concentration not given with the values); 410,000 compounds, 0.12% hits; in the data active = activation above about 50%; inconclusive = about 30% to 50%; inactive = below about 30%; note: 0% is about no effect; the text of the record puts the active cut at 80%
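Cells: TRPML1-DL, 1X Tet inducer, ~16 h at 37 degrees C/5% CO2. Dye: ABD Ca8 no-wash + quencher, 45-90 min RT. Read: 10 s baseline, compound add, 110 s agonist phase; 54-4 EC80 (4uM final), 110 s antagonist phase.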
PINK1 modulator – changes PINK1 expression. 410,000 compounds, 0.2% hits. Potency, µM (titrated, usually from 76.6 µM), inactives show at the highest dose activation (PINK1 increase), most hits filed as activators. AID 624263. PINK1 immunofluorescence, high-content cytometry, 24 h; active = well fitted activation curve with a large enough effect; inconclusive = small, poorly fitted or top-dose-only effect; inactive = flat fitted curve, though single readings scatter; cell line not stated here;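 note: potency is the fitted concentration of half-maximal effect; % of control where 0% means no effect; nearly all actives have a fitted effect of over 65% in size; a mitochondrial uncoupler was the plate control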
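Fluorescence from anti-PINK1 antibody, together with nuclear and cell stains, was scanned on a laser-scanning cytometer. Before staining, stable-line cells were incubated 24 hours with compounds at 5 concentrations; primary antibody 12 h at 10 degrees C.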
D2 agonist – activates the human D2 dopamine receptor; 360,000 compounds, 0.084% hits; P14416; DiscoveRx PathHunter D2 beta-arrestin, luminescence, 90 min; 100% = 57 uM dopamine signal; activation, % (no concentration beside the values); in the data active = activation above about 40%; inconclusive = about 15% to 40%; inactive = below about 15%; note: compound concentration not given in the record; the text of the record calls up to 30% inactive
Target sequence (P14416 whole entry, looked up): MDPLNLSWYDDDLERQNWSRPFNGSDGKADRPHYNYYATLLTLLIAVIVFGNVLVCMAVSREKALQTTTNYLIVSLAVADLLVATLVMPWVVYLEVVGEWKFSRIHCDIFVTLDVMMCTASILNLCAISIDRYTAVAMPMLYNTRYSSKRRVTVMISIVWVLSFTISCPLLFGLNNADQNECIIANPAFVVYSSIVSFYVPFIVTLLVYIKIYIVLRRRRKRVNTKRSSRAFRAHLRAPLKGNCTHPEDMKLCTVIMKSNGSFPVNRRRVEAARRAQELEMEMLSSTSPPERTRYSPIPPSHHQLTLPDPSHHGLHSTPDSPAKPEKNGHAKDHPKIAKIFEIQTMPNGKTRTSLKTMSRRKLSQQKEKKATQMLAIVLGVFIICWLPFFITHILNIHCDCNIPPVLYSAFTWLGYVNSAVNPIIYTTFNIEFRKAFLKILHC
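Agonist mode: compounds alone added to overnight-plated D2 PathHunter cells for 90 min at 37 C, with 57 uM final dopamine (EC100) defining full response. Beta-arrestin recruitment detected by chemiluminescent reagent, read after 1 h at ambient temperature.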
Starred values were filed as active, the others as inactive; u = inconclusive; x = not tested or not shown; [ ] = remark or other dose.

Order of values – PINK1 modulator, D2 agonist, Six1-Eya2 inh, TRPML1 ag, TRPML1 inh, CtBP-E1A inh
- COC(=O)C1=C(C(C)=O)C(c2ccc(C(=O)OC)cc2)n2nnnc2N1 (configuration not stated)
  5.9%, -3.2, -2, -1.0, 22, 1
- Cn1c(SCC(=O)NC2CC2)nnc1-c1ccccn1
  -1.1%, -2.9, -3, 0.3, -5, -9
- Cc1nn(Cc2c(F)c(F)c(F)c(F)c2F)c(C)c1NC(=O)c1nn(C)c(C)c1Br
  2.1%, -2.4, -2, -0.1, 29, -1
- COCCOC(=O)C1=C(C)NC(=S)NC1c1ccc(OCC(=O)N2CC(C)OC(C)C2)c(OC)c1 (configuration not stated)
  0.3%, -0.9, -1, -0.5, 1, x
- O=C(NCCNS(=O)(=O)c1ccccc1)N1CCOCC1
  x, -0.1, 6, 0.6, -14, 5
- Cc1cccc(C(=O)OC2CCOC2=O)c1O (configuration not stated)
  2.6%, 0.1, 1, -0.4, 2, 2
- CCCCn1c(N)c(N(CCC(C)C)C(=O)C2=NN(c3ccccc3)C(=O)CC2)c(=O)[nH]c1=O
  0.7%, -0.6, 0, 0.5, -8, 2
- O=C(O)CSc1cc(C(=O)c2cc(F)ccc2O)cn2c(=O)c3c(-c4ccccc4)csc3nc12
  -0.1%, 3.1, -23, 2.5, 22, x
- Cc1ccc(OCCSc2nnc(-c3cccs3)o2)cc1Cl
  0.6%, x, x, 3.8, -11, x
- CN(C)c1cccc(C(=O)OCC(=O)c2ccc[nH]2)c1
  1.3%, 2.8, -17, 0.8, -7, -1
- CCC(C)c1ccccc1NC(=O)c1cccc(-n2cnnn2)c1 (configuration not stated)
  5.2%, -2.1, 1, 1.7, 43, -12
- FC(F)(F)c1cc(Cl)c2nc(-c3ccc(Cl)cc3)c(Cc3ccsc3)n2c1
  2.5%, x, 5, 1.1, x, -20
- CC(C)n1nnc2ccccc2c1=O
  1.6%, 0.6, 1, 0.9, -1, 3
- COc1ccc(-c2sc3ccccc3c2-c2ccc(OCCN(C)C)cc2)cc1
  -2.2%, 12, -29, 1.7, 13, u
- Cc1ccnc(NC(=O)c2cccc(S(=O)(=O)N3CCN(c4ccc(F)cc4)CC3)c2)c1
  0.2%, 4.7, -23, 1.4, 28, u
- O=C(CC1(O)C(=O)Nc2cc(Cl)cc(Cl)c21)c1ccccc1O (configuration not stated)
  1.2%, -9.7, 0, 1.3, -6, 3
- COc1ccccc1NC(=O)Nc1nc(C(N)C(C)C)cs1 (configuration not stated)
  3.4%, 3.4, -8, -0.4, x, -14
- COc1cc(Nc2ccc(C)cc2)c([N+](=O)[O-])nc1[N+](=O)[O-]
  8.5%[38.3 µM], -0.9, 0, 2.1, 41, 4
- Cc1ccccc1Oc1ncccc1C(=O)/C(C#N)=C/N(C)C
  -0.8%[38.3 µM], -1.3, 9, 0.1, 19, 14
- COc1ccccc1CNC(=O)CNC(=O)c1ccc(Br)o1
  0.0%, -5.4, 3, -0.2, 0, 8
- Cc1ccc(-c2c(C(=O)N/N=C/c3cccnc3)nnn2-c2nonc2N)cc1
  1.7%, 0.9, -8, -0.6, 13, -1
- CC1CN(S(=O)(=O)c2csc(C(=O)Nc3ccccc3)c2)CC(C)O1 (configuration not stated)
  1.3%, -5.2, 0, 2.8, 23, 2
- CCCOc1ccc(-c2cnc(SCC(N)=O)nc2N)cc1
  -2.0%, 0.4, 1, 1.5, 10, -5
- COc1ccc(-n2nc3cc(C)c(NC(=O)c4ccc(-c5ccc(Cl)cc5)o4)cc3n2)cc1
  5.4%, x, x, -0.3, 22, x
- O=C1CCc2cc(S(=O)(=O)N3CCC(C(=O)NCCC4=CCCCC4)CC3)ccc2N1
  16%, -5.1, 14, 0.8, -10, -19
- CN(C)/C=C1\SC(=S)N(c2ccc(Br)cc2)C1=O
  -0.5%, -4.9, -28, 14, -26, -11
- COCC(=O)N1CCCC(N(C)CCc2ccc(OC)c(OC)c2)C1 (configuration not stated)
  1.7%, -3.4, -4, 0.8, 1, 11
- Cc1cc(C)n(Cc2ccccc2F)c(=O)c1C#N
  0.0%, -7.0, 8, -0.4, 9, -3
- O=C(c1cccs1)N1CCN=C1SCc1cccnc1
  0.8%, 0.9, 0, 1.8, -5, -3
- CN1CCCC(n2nc(Cc3ccc(Cl)cc3)c3ccccc3c2=O)CC1 (configuration not stated)
  0.1%, -5.9, -3, 0.7, 5, -19
- Cc1ccc(-n2nc(C(=O)N(C)c3ccc(C)c(C)c3)c3c4ccccc4n(C)c3c2=O)cc1
  3.3%, x, x, 1.1, -9, x
- O=C(COc1ccccc1)NCCSCc1ccco1
  -1.2%, -2.1, -2, -0.2, 1, -4
- CCC(C)C(NC(C)=O)C(=O)NC(=O)NC(c1ccccc1)c1ccccc1 (configuration not stated)
  x, -1.4, 3, 0.5, 18, -1
- CCCCCc1cc(=O)c2ccccc2o1
  2.7%, -4.3, 1, -0.5, 18, 7
- COc1ccc(C(C)=O)cc1Cn1nc(C)c([N+](=O)[O-])c1C
  -0.5%, 1.7, 0, 1.5, 7, -1
- O=C(NCc1cccc(Cl)c1)c1ccc(S(=O)(=O)Nc2cccc(C(F)(F)F)c2)cc1
  u, -0.1, 14, 2.4, -8, -7
- O=C(COc1ccc(S(=O)(=O)NC2CCCCC2)cc1Cl)Nc1ccc2c(c1)OCO2
  -0.4%[38.3 µM], 0.7, -9, 1.6, -11, -15
- Cc1nn(C)cc1CNC(=O)COc1ccc(Cl)cc1Cl
  -1.9%, 0.9, 14, 1.1, 9, -8
- O=C(C[n+]1cc(-c2ccc(Br)cc2)n2c1CCCCC2)c1ccccc1
  5.7%, -5.1, 10, -0.3, 0, -1
- CCOC(=O)C1=C(C)NC(C)=C(C(=O)OCC)C1C(=O)OCC(=O)NCCc1ccc(S(N)(=O)=O)cc1
  1.8%, -1.3, 3, -0.6, -23, -8
- CCCCNC(=O)c1[nH]c(=O)cnc1-c1ccccc1
  -0.7%, 3.5, 29, -0.5, x, 32
- CCN(Cc1ccccc1)S(=O)(=O)c1ccc(C(=O)N(CCCN(C)C)c2nc3c(F)cccc3s2)cc1
  0.5%, -4.2, -24, -0.8, -9, -26
- Cc1occc1-c1nnc(SCC(=O)c2c(N)n(C3CC3)c(=O)[nH]c2=O)n1C
  4.2%, 0.4, 3, 0.1, 13, 10
- O=C1CC(c2ccco2)CC(O)=C1C=NCC1CCNCC1 (configuration not stated)
  -0.5%, -3.1, 14, -0.4, -3, 21
- Cc1c(Cl)cccc1NC(=O)c1cc(-c2ccc3c(c2)OCO3)on1
  -0.5%, x, x, -0.3, 8, x

Arranged by the number under Six1-Eya2 inh (highest first): some entries from above.
SMILES,Six1-Eya2 inh
O=C(NCc1cccc(Cl)c1)c1ccc(S(=O)(=O)Nc2cccc(C(F)(F)F)c2)cc1,14
O=C(C[n+]1cc(-c2ccc(Br)cc2)n2c1CCCCC2)c1ccccc1,10
O=C(COc1ccc(S(=O)(=O)NC2CCCCC2)cc1Cl)Nc1ccc2c(c1)OCO2,-9

Back to the main list, repeating the two entries before the break.
Order of values – PINK1 modulator, D2 agonist, Six1-Eya2 inh, TRPML1 ag, TRPML1 inh, CtBP-E1A inh
- O=C1CC(c2ccco2)CC(O)=C1C=NCC1CCNCC1 (configuration not stated)
  -0.5%, -3.1, 14, -0.4, -3, 21
- Cc1c(Cl)cccc1NC(=O)c1cc(-c2ccc3c(c2)OCO3)on1
  -0.5%, x, x, -0.3, 8, x
- NC(=O)Nc1ccccc1C(=O)NCCc1ccccc1
  -1.3%, -4.2, -9, 1.2, -3, 0
- Cc1ccccc1NS(=O)(=O)c1ccc(C(=O)NNC(=O)c2ccccc2O)cc1
  2.5%, -4.5, -14, 1.2, 61, -2
- Cc1c(C(=O)c2cccc([N+](=O)[O-])c2)c2ccccn2c1CCC#N
  1.8%, -5.8, -2, -0.6, -17, 1
- Cc1ccc(C(NC(=O)C2CCN(Cc3ccc(Cl)c(Cl)c3)CC2)c2ccccn2)cc1 (configuration not stated)
  -0.4%, -2.3, -24, 0.4, x, -19
- COc1ccc([N+](=O)[O-])cc1N(CC(O)CN1CCCC1)S(=O)(=O)c1ccc(C)cc1 (configuration not stated)
  15%, 7.7, 4, 0.5, -6, -3
- O=C(Nc1ccc(Oc2ccccc2)cc1)c1ccc2nc([C@@H]3O[C@H](CO)[C@H](O)[C@H](O)[C@H]3O)[nH]c2c1
  3.8%, 1.5, -1, 1.5, -11, 1
- O=C(Nc1ccc(-c2noc(-c3cccs3)n2)cc1)c1cccnc1
  6.8%, 0.6, -20, -0.6, 8, -13
- C=CCC(C)(NCc1ccccc1)c1ccccc1 (configuration not stated)
  -1.0%, -3.8, 16, -0.6, -1, -2
- CCc1cccc(OCCOC(=O)CNS(=O)(=O)c2ccc(NC(C)=O)cc2)c1
  20%, -3.3, -3, -0.4, -1, -5
- COc1ccc(N2CC(NC(=O)NCC(C)C)CC2=O)cc1 (configuration not stated)
  2.1%, -1.6, -2, -0.3, 2, -2
- N#Cc1c(-c2cccc(F)c2)cc(-c2ccccc2)nc1Br
  10%, 0.3, 13, 1.0, 23, 17
- CN(C)CCn1nnc2c(=O)oc3ccccc3c21
  0.8%, -1.9, 1, 0.4, -7, 2
- CCCCNC(=O)OC1CCS(=O)(=O)C1 (configuration not stated)
  0.7%, -2.0, 2, 0.2, 0, 3
- O=c1[nH][nH]c2cc(=O)n(-c3cccc(C(F)(F)F)c3)nc12
  0.1%, -3.8, -14, 0.1, -10, -3
- Cc1ccc(-n2ncc3c2CC(C)(C)CC3NC(=O)CCn2cncn2)cc1 (configuration not stated)
  0.9%, -1.9, 1, 0.2, 2, 5
- Cc1ccc(N(CC(=O)NCc2ccco2)C(=O)CCC(=O)Nc2nccs2)cc1C
  3.3%, -2.8, -9, -1.3, -12, 4
- Cn1c(=O)cc(SCC(=O)NCCC2=CCCCC2)c2cc(Cl)ccc21
  5.1%, -2.6, 6, -0.6, 6, 1
- COc1ccc(Cl)cc1NC(=S)NCCC(c1ccccc1)c1ccccc1
  -0.2%, -5.0, -15, 0.0, 14, -1
- Nc1c(C(=O)NCc2cccs2)nnn1CC(=O)Nc1cccc(F)c1
  1.7%, x, x, -0.9, 6, x
- CCOC(=O)c1sc(NC(=O)c2ccc(S(=O)(=O)N(C)C)cc2)nc1C
  u, -1.2, u, 0.6, -16, 4
- COc1ccc(Br)c(C(=O)Nc2nc3ccccc3[nH]2)c1
  14%, 0.9, 2, 0.1, -9, 3
- CC(C)(C)NC(=O)C(=O)N/N=C/c1ccc(Br)cc1
  4.1%, -0.1, 4, -1.4, 8, 10
- CCCCNC(=O)c1onc(CSc2ccc(F)c(F)c2)c1C(=O)O
  0.7%, 1.4, 2, -0.7, 2, 8
- CC(=O)Nc1ccc(N=Cc2nc(-c3ccc(C)cc3)oc2O)cc1
  -1.8%, -2.0, -3, -0.3, -5, 7
- CCOc1ccccc1-n1c(SCC(N)=O)nnc1-c1cccnc1
  -0.3%, -3.1, 0, -0.6, -1, -5
- COc1ccc(/C(=N\Nc2ccccc2C(=O)O)c2ccccc2)cc1
  -0.1%, -1.6, -8, -0.1, -8, -1
- O=C(CCn1c(=O)oc2ccccc21)N(Cc1ccccc1)c1ccccc1
  0.0%, -1.6, 7, 1.8, 16, 6

Bioassay records deposited in PubChem by National Center for Advancing Translational Sciences (NCATS).
